# Screening data from PubChem BioAssay.
# Mtb H37Rv = M. tuberculosis H37Rv growth inhibitors, H37Rv strain (AID 1626); M. tuberculosis H37Rv growth inhibition; higher % means a stronger effect; inhibition, % at 10 µM, or IC50 in µM where a hit was titrated; 220,000 compounds, 0.95% hits;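 active = confirmed in a dose series; inconclusive = inhibition above 80% but not taken into the dose series; inactive = below 80% or under 30% at every dose of the series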;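 also: bacteria incubated seven days before Alamar blue readout; 0% = bacteria only wells and 100% = bacteria with antibiotic wells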
# Mtb bLac sens = beta-lactam sensitization of Mtb H37Rv; M. tuberculosis H37Rv growth with meropenem, percent inhibition; hits of this screen are not shown here; 330,000 compounds, 0.27% hits; inhibition, % at 25 µM;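 active = about 74% or more and at least 40 points above the plate without the antibiotic, then above 30% in a dose series; inconclusive = first-round hits that could not be retested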;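 also: growth measured after seven days incubation then overnight dye step; 0% = bacteria only wells and 100% = bacteria with antibiotic; twin plates without the antibiotic show which effects depend on it; some results filed as inactive read as strong as hits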
# Arbovirus inh = antivirals against arbovirus infection; arbovirus infection cell-based antiviral screen; inhibition, % at 10 µM; 200,000 compounds, 0.37% hits; AID 1251;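 active = inhibition from about 30%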;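 also: bluetongue infection of BSR cells; cell survival read as ATP light after 72 h; 0% = infected wells without compound and 100% = uninfected wells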
# RecA splice inh = blocks M. tuberculosis RecA intein splicing; AID 2221; 290,000 compounds, 0.75% hits; P9WHJ3; inhibition, %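 (about 9 µM by stock and volumes)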; cell-free RecA intein splicing, fluorescence; in the data active = inhibition above about 30%; inconclusive = no clear call, values can overlap the other calls;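 also: 0% = vehicle wells and 100% = reference inhibitor control wells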
# Target sequence (P9WHJ3 whole entry, looked up, canonical isoform): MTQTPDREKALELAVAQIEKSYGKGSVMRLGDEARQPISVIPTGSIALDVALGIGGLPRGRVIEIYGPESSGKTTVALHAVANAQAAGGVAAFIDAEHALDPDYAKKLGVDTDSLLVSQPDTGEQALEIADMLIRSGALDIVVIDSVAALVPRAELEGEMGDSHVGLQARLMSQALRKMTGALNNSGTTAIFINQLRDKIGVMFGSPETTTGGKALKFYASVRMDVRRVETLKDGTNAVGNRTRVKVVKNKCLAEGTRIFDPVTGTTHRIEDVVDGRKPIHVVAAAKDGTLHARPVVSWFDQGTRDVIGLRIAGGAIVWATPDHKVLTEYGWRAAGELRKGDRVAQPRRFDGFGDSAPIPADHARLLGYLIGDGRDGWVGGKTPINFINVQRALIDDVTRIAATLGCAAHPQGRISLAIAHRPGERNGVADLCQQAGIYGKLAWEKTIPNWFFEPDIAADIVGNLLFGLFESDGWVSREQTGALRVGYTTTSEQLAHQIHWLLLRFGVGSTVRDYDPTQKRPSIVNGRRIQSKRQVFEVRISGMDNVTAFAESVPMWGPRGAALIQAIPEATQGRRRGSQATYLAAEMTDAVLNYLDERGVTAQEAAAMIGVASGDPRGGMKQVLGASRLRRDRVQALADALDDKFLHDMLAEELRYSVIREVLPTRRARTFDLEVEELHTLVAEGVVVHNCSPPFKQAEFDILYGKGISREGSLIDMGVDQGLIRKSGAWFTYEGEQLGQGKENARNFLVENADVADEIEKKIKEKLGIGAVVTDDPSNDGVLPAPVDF
# YopH PTP inh = blocks Yersinia enterocolitica YopH tyrosine phosphatase; fluorescence Ex485/Em525; inhibition, %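 (about 10 µM by stock and volumes)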; 140,000 compounds, 0.16% hits; AID 898;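 active = inhibition of 50% or more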;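 also: controls were vehicle for no effect and minimum signal wells for full effect; inactives centre near -20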
# Arbovirus inh repeat = recorded beside Arbovirus inh, whose call it bears; inhibition, %; measured here: 10K subset replicate screen; many hits read low in the repeat;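 first of two repeat runs on a subset; 0% = infected and 100% = uninfected wells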
# * marks the source's active call; other numbers are inactive results; ? = inconclusive; · = no result given. This is a subset; count on the stated rates, not on these rows.
SMILES,Mtb H37Rv,Mtb bLac sens,Arbovirus inh,RecA splice inh,YopH PTP inh,others
CCCC(C)NC(=O)Cc1ccccc1[N+](=O)[O-] (stereo unspecified),0.2%,-9.8,-6.9,3.1,-38.1,
N/C(=N\OC(=O)Cc1ccccc1)c1ccc(Br)cc1,6.2%,-1.7,-6.6,6.3,-12.1,
C/C(=N\Nc1ccccn1)c1ccc(C(C)C)cc1,10.9%,20.6,13.8,2.2,·,
O=C(CCCn1c(=S)[nH]c2ccccc2c1=O)NCc1ccco1,-8.7%,-5.2,1.9,2.9,-17.9,
COC(=O)c1cccc(NC(=O)CSc2nncn2-c2ccccn2)c1,·,-4.2,·,0.6,·,
COc1ccc(CC(=O)N2C[C@H]3C[C@@H](C2)c2cccc(=O)n2C3)cc1,·,-5.9,·,-0.9,·,
CCOCCOC(=O)c1ccc(-n2cncn2)nc1,-10.4%,-2.3,3.9,-2.6,-1.2,
Cc1ccc(-c2cc(C(=O)N/N=C/C(Br)=C/c3ccccc3)n[nH]2)o1,28.1%,7.0,-8.3,1.4,·,
CCOC(=O)c1cnc2cc(F)c(F)cc2c1N1CCN(C)CC1,·,-0.9,·,-0.9,·,
CC(C)NC(=O)c1ccccc1NC(=O)C1CC(=O)N(C(C)C)C1 (stereo unspecified),·,-6.8,·,-0.6,·,
CCN(CC(=O)NCCCn1ccnc1)S(=O)(=O)c1ccc(C)cc1,·,-1.0,·,0.8,·,
O=C(Cn1ncc2c3ccccc3n(Cc3ccc(Cl)cc3)c2c1=O)NCCCN1CCCC1=O,·,0.1,·,0.2,·,
COc1ccc(NC2=NC(=S)N(c3cccc(C)c3)C23CCCCC3)cc1,·,-11.8,2.1,2.1,-18.4,
CC(C)C(=O)Nc1nnc(NC(=S)Nc2ccccc2)s1,-2.1%,2.9,13.8,-1.0,·,
O=C(Nc1cc(S(=O)(=O)N2CCOCC2)ccc1Cl)c1cc(=O)c2ccccc2o1,-1.0%,1.3,-2.8,-0.4,·,
COc1ccc(OC)c(NC(=O)C2CCCN(S(=O)(=O)c3c(C)nn(C)c3C)C2)c1 (stereo unspecified),·,-12.7,·,4.8,·,
Nc1c(Cl)ncnc1N/N=C/c1ccc2ccccc2n1,10.7%,37.4,-25.2,·,-24.6,
CCCCn1c(=O)c(CCC(=O)O)nc2ccccc21,2.1%,-0.5,1.5,0.4,·,
CC(=O)NC(=O)c1nnn(Cc2ccccc2)c1NC(C)=O,-5.6%,-5.2,-2.6,·,13.2,
CCOC(=O)c1cnc(SCC#N)nc1N,-1.6%,4.1,·,-4.6,·,

# Two entries picked at random from the list so far:
SMILES,Mtb H37Rv,Mtb bLac sens,Arbovirus inh,RecA splice inh,YopH PTP inh,others
CCCCn1c(=O)c(CCC(=O)O)nc2ccccc21,2.1%,-0.5,1.5,0.4,·,
COc1ccc(CC(=O)N2C[C@H]3C[C@@H](C2)c2cccc(=O)n2C3)cc1,·,-5.9,·,-0.9,·,

# Among those listed so far, these have an NH in an aromatic ring.
SMILES,Mtb H37Rv,Mtb bLac sens,Arbovirus inh,RecA splice inh,YopH PTP inh,others
O=C(CCCn1c(=S)[nH]c2ccccc2c1=O)NCc1ccco1,-8.7%,-5.2,1.9,2.9,-17.9,
Cc1ccc(-c2cc(C(=O)N/N=C/C(Br)=C/c3ccccc3)n[nH]2)o1,28.1%,7.0,-8.3,1.4,·,

# Other structures
SMILES,Mtb H37Rv,Mtb bLac sens,Arbovirus inh,RecA splice inh,YopH PTP inh,others
Cc1cccc(NC(=S)NC(=O)c2ccc(Br)o2)c1C,5.2%,-8.2,4.7,-5.2,·,
O=C(CCNS(=O)(=O)c1ccc(Cl)cc1)N1CCC2(O)CCCCC2C1 (stereo unspecified),-7.4%,-6.3,1.4,1.5,-38.3,
Cc1ccc(N=CC2=C(O)CC(c3ccco3)CC2=O)cc1 (stereo unspecified),-4.6%,3.1,2.8,2.4,-5.0,
CN(C)CC[C@@H](c1ccc(Cl)cc1)c1ccccn1,1.1%,-3.6,·,-3.5,·,
COc1ccc(CN(C(=O)c2ccc(-c3ccccc3)[nH]2)C(C(=O)NC(C)(C)C)c2ccncc2)cc1 (stereo unspecified),22.6%,95.9,-27.6,8.0,·,
CCOc1cc(CNc2ccc(O)cc2)cc(Br)c1OCc1ccccc1F,4.7%,2.3,-22.7,22.2,-49.0,
CCCn1nc(C(=O)NNC(=O)CCOc2ccccc2OCC)c2ccccc2c1=O,·,-10.7,·,3.2,·,
COc1ccc(/C=C2\SC(=S)N(CCC(=O)N(CCO)c3ccccc3)C2=O)cc1OC,·,4.6,·,1.7,·,
O=[N+]([O-])c1ccc(Cl)c(S(=O)(=O)N2CCCCCC2)c1,6.3%,5.3,-6.9,2.9,-23.1,
C(=N\n1cnc2ccccc21)/c1cccnc1,-6.1%,-2.8,8.4,-1.6,9.0,
Cc1ccc(S(=O)(=O)N2CCOCC2)cc1NC(=O)COC(=O)CCOc1ccc(C(C)(C)C)cc1,·,-13.3,·,-0.9,·,
COc1ccc(N2C(=O)/C(=C/c3ccc([N+](=O)[O-])cc3)N=C2C)c(OC)c1,3.4%,-0.6,-0.7,-0.8,·,
O=C(COC(=O)c1ccc(S(=O)(=O)N2CCOCC2)cc1)NC1CCCCCCC1,2.3%,4.9,18.1,2.8,·,
COc1ccc(S(=O)(=O)N2CCN(CC(=O)Nc3ccc(C)c(F)c3)CC2)cc1,9.8%,·,6.8,-2.6,-17.4,
O=C(NCc1ccccc1)c1noc2c1CCCC2,6.6%,-8.4,-8.5,-2.6,-18.2,
Cc1c(C)n(C)c2ccc(C(=O)NCCCN3CCN(c4ccc(F)cc4)CC3)cc12,·,13.9,·,-1.2,·,
Cc1ccc(Cl)cc1NC(=S)NCCCSC1CCCCC1,5.7%,-8.6,-30.8,13.0,·,
CN(CCO)C(=O)C1CCN(c2ncc(C(F)(F)F)cc2Cl)CC1,2.2%,-6.5,3.7,0.6,·,
Cc1ccc2c(c1)nnn2C1CCN(S(=O)(=O)c2ccc(C(=O)N3C(C)CCCC3C)cc2)CC1 (stereo unspecified),·,35.7,-4.3,0.9,-35.3,
CC(=O)Nc1sc2c(c1C(c1ccc(F)cc1)N1CCOCC1)CCCC2 (stereo unspecified),9.2%,-10.4,-17.3,4.5,-21.3,

# Grouped by structure: those above with a nitro group on carbon
SMILES,Mtb H37Rv,Mtb bLac sens,Arbovirus inh,RecA splice inh,YopH PTP inh,others
CCCC(C)NC(=O)Cc1ccccc1[N+](=O)[O-] (stereo unspecified),0.2%,-9.8,-6.9,3.1,-38.1,
O=[N+]([O-])c1ccc(Cl)c(S(=O)(=O)N2CCCCCC2)c1,6.3%,5.3,-6.9,2.9,-23.1,
COc1ccc(N2C(=O)/C(=C/c3ccc([N+](=O)[O-])cc3)N=C2C)c(OC)c1,3.4%,-0.6,-0.7,-0.8,·,

# (more compounds)
SMILES,Mtb H37Rv,Mtb bLac sens,Arbovirus inh,RecA splice inh,YopH PTP inh,others
COc1ccc(OCCNC(=O)CCCO)cc1,-14.0%,-7.4,·,1.3,·,
Cc1nc2sccn2c1P(c1c(C)nc2sccn12)c1c(C)nc2sccn12,1.4%,-2.9,13.3,1.7,-42.9,
O=C(CNC(=O)c1ccco1)NCc1nc2ccccc2[nH]1,·,?,·,1.8,·,
Cn1c(C(=O)NCCCN2CCCCCC2)cc2c(=O)n(C)c3ccccc3c21,19.6%,4.9,-5.2,·,-28.4,Arbovirus inh repeat=-6.6
Cc1nc2sccn2c(=O)c1S(=O)(=O)N1CCN(c2ccccc2)CC1,·,-1.8,·,-1.5,·,
Cc1ccc(NC(=O)CCS(=O)(=O)c2cc3c(cc2Cl)NC(=O)CO3)cc1,·,-3.3,·,-4.3,·,
CC(=O)c1ccc(NC(=S)NC(=O)c2c(Cl)c(C)nn2C)cc1,-11.9%,-2.7,5.7,-0.8,1.3,
Cn1ncc(C#N)c1/N=C/N1CCCCC1,0.2%,-2.4,4.9,0.4,8.0,
CC(OC(=O)c1ccc2c(=O)n3c(nc2c1)CCCCC3)C(=O)Nc1ccc(Cl)cn1 (stereo unspecified),79.4%,95.3,6.0,0.3,-32.5,
CCOc1cc(C2c3c(n[nH]c3C)C(=O)N2c2ccc(Br)cc2)ccc1O (stereo unspecified),-0.9%,1.2,15.8,15.3,-47.6,
O=C(NNC(=O)c1cccnc1)NC1CCCCC1,14.4%,-2.8,-3.2,-0.8,·,
COc1cc(CN2CCN(Cc3ccccc3C(F)(F)F)CC2)cc(OC)c1OC,·,11.5,·,-0.7,·,
O=c1cc(-c2ccccc2)[nH]c2ccc(F)cc12,9.4%,-1.9,-15.2,0.3,-21.2,
CCc1ccc(-c2nc3ccc(Br)cc3c(C(=O)O)c2C)s1,·,-2.3,·,-0.9,·,
COc1ccc(S(=O)(=O)c2ccc(OC)c(OC)c2)cc1OC,-4.8%,2.6,1.7,6.0,-39.7,
CCCCNC(=O)CCN1N=C(c2ccccc2)CCC1=O,0.2%,-1.7,16.1,1.1,·,
O=C(c1ccccc1)N(Nc1ccccc1)c1ccccc1,-5.6%,-1.8,-8.9,-0.3,·,
CCOC(=O)CCn1c(=O)c2c(nc(Br)n2Cc2ccccc2)n(C)c1=O,-3.9%,-4.1,7.2,-2.2,-52.9,
CC(=O)C1=C(O)C(=O)N(CCCn2ccnc2)C1c1ccc(Br)cc1 (stereo unspecified),2.6%,-1.5,6.2,0.9,·,
CN(C(=O)c1ccccc1Cl)c1ccccc1,7.3%,-6.8,2.9,0.1,-23.6,
O=C(Cc1ccc(Cl)cc1Cl)OCC(=O)c1ccc[nH]1,-15.7%,-0.5,4.3,0.1,3.4,
O=C1CN(C(=O)COC(=O)c2cc(S(=O)(=O)N3CCOCC3)ccc2Cl)c2ccccc2N1,-2.2%,-12.0,·,-0.6,·,
Cc1cccc(NC(=O)COc2cccc3c2CCN(C)C3=O)c1,-2.9%,5.4,2.1,2.8,·,
O=C(CSc1nc2[nH]ncc2c(=O)[nH]1)Nc1cccc([N+](=O)[O-])c1,·,-16.1,·,-2.6,·,
Cc1cc(C)nc(N2CCN(C(=O)c3ccc(S(=O)(=O)N4CCCCCC4)cc3)CC2)n1,1.7%,3.7,-7.9,1.9,·,
CCCCN(CC)CCCNC(=O)c1cn(C)c2ccc(S(=O)(=O)N(C)C3CCCCC3)cc2c1=O,·,2.4,·,2.5,·,
NC(=O)CC(NC(=O)Cc1ccc(Br)cc1)c1ccc(NC2CCCCCC2)c([N+](=O)[O-])c1 (stereo unspecified),8.9%,·,·,0.5,·,
Cc1ccc(S(=O)(=O)N(C)CC(=O)O/N=C(\N)c2ccc([N+](=O)[O-])cc2)cc1,-6.2%,1.0,-6.0,2.8,-11.7,
CCOc1ccc(S(=O)(=O)NCc2cccnc2)cc1C,-1.3%,34.1,15.4,39.9*,·,
Clc1ccc(CN2CCc3c([nH]c4ccccc34)C2)cc1Cl,·,4.8,·,26.3,·,
CC(NC(=O)c1ccnc(C(C)(C)C)c1)c1ccccc1 (stereo unspecified),-11.8%,-13.8,0.6,-1.1,-16.1,
COc1cccc(C(c2nnnn2Cc2ccco2)N2CCN(c3cccc(C)c3C)CC2)c1OC (stereo unspecified),13.9%,-8.3,-8.0,8.5,-35.5,
Cc1ccc(C)c(NC(=O)CN(C)C(=O)c2cccc(-n3cccc3)c2)c1,·,-12.8,·,-0.2,·,
Cc1cc(NC(=O)CCCn2nc([N+](=O)[O-])c(Br)c2C)no1,-7.9%,-1.0,7.0,-1.6,·,
O=C(NCCCn1ccnc1)/C(=C\c1ccccc1Cl)NC(=O)c1ccccc1,·,-12.0,·,1.5,·,
Cc1c(CCC(=O)O)c(=O)oc2c(C)c(OCc3ccccc3Cl)ccc12,·,0.9,·,0.0,·,
O=C(Nc1cc([N+](=O)[O-])ccc1F)c1ccc2c(c1)OCCO2,-3.6%,6.2,-6.1,-0.5,·,
COCCCN(C)C1CCN(C(=O)Nc2ccc(F)cc2)CC1,0.5%,-1.8,2.7,-2.8,-19.4,Arbovirus inh repeat=4.8
CC(Oc1ccc(Br)cc1)C(=O)Nc1cc(Cl)ccc1N1CCN(C)CC1 (stereo unspecified),·,83.8,·,0.8,·,
